High-throughput results (PubChem)
Prx2 Sm inh: inhibitors of Schistosoma mansoni peroxiredoxin 2; S. mansoni Prx2 activity coupled to TGR/GSH (TGR is thioredoxin glutathione reductase), NADPH fluorescence loss, qHTS; some inactives read as strong as hits; Potency, µM; 0.07% of 65,000 active; active means full or partial inhibition curve with a strong effect at the top dose; inconclusive means weaker partial or single-point curve; inactive means no accepted curve; note: series up to 57 µM; many of its hits are not listed in these tables
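qHTS, coupled TGR/Prx2 format; 15 min compound preincubation at RT; reaction started with H2O2 (2.5 mM aliquot); kinetic NADPH fluorescence decrease, ex 365/em 450 nm.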
LT uptake inh: blocks cellular internalization of anthrax lethal toxin. Cells, anthrax lethal toxin internalization, FRET ratio (460/530). Potency, µM (titrated, usually from 40 µM), without a hit: top-dose activity change, negative = inhibition, hits mostly inhibitors. 0.67% of 70,000 active. AID 912; active = well fitted falling ratio curve with the 530 nm signal flat; inconclusive = other ratio curves, or a change in one channel alone; inactive = flat curves in the ratio and both channels; the % refers to the ratio; note: % is set by controls: 0 for no effect and ±100 for the full control effect; nearly all actives have a fitted effect of over 50% in size; tested in ME-180 cells; beta-lactamase reporter
* hit, by the source's call; ? = inconclusive; . = not tested or not shown; [ ] = another dose, or the depositor's remark. Potency is the fitted concentration of half-maximal effect. A portion of the library; count on the stated rates, not on these rows.

SMILES	Prx2 Sm inh	LT uptake inh
OC(CN1C2=NCCN2c2ccccc21)c1ccc2c(c1)OCO2 (configuration not stated)	>57	?
CCSC1=N/C(=C\c2ccc(C(=O)O)cc2)C(=O)S1	.	0%
CCc1nc2ccccc2c(NC(=O)CN2CCC(C)CC2)c1C	>57	?
CCc1c(C(=O)Nc2ccc(S(=O)(=O)N3CCOCC3)cc2)csc1C	>57	?
O=C1NC(Cc2c[nH]c3ccccc23)C(=O)N1CCOc1ccccc1 (configuration not stated)	>57	2%
Cc1c(NS(=O)(=O)c2ccc3c(c2)CCN3C(=O)C2CC2)c(=O)n(-c2ccccc2)n1C	>57	-2%
O=S(=O)(NCCOCC(F)(F)C(F)F)c1ccc2oc3ccccc3c2c1	>57	6%
Cn1c(CN2CCCC2)nc2cc(NC(=O)c3ccco3)ccc21	>57	-4%
CCCCNc1cc(C)oc(=O)c1C(C)=O	>57	-9%
Cc1ccc(S(=O)(=O)N(C)CC(=O)Nc2cccc(C)n2)cc1	>57	-3%
O=C(Nc1cc(C(F)(F)F)ccc1N1CCOCC1)c1ccc(Br)o1	>57	-1%
O=C(O)CCc1ccc(-c2ccccc2)n1CC(=O)O	>57	-8%
c1ccc(C2CC3CC(c4ccco4)N2O3)cc1 (configuration not stated)	.	-2%
Nc1ccccc1O	.	7%
O=C(Nc1c(C(=O)Nc2ccccc2)cnn1-c1ccccc1)c1ccco1	>57	-15%
COc1cccc(C(C(=O)NC(C)(C)C)N(C(=O)CCC(=O)Nc2cc(C)on2)C2CC2)c1OC (configuration not stated)	>57	8%
CCn1c(COc2cccc(C)c2)nnc1SCC(=O)CC(=O)Nc1ccccc1OC	>57	-8%
Cc1cccn2c(=O)c3cc(C(=O)N4c5ccccc5CC4C)n(C)c3nc12 (configuration not stated)	>57	18%
Cn1c(SCC(=O)Nc2ccccc2)nc(O)cc1=O	.	-7%
Cc1nc2scc(-c3ccco3)c2c(=O)n1/N=C/N(C)C	>57	?
Cc1noc(/C=C/c2ccco2)c1S(=O)(=O)N1CCC(C(=O)N2c3ccccc3CC2C)CC1 (configuration not stated)	>57	?
N#Cc1c(-c2ccco2)nc(NCC2CCCO2)[nH]c1=O (configuration not stated)	>57	3%
CCc1ccc2oc(-c3cc(N=Cc4cccc(OC)c4O)ccc3O)nc2c1	>57	4%
O=S1(=O)N=C(Nc2ccc(S(=O)(=O)N3CCCCC3)cc2)c2ccccc21	>57	23%
CCN1CCN(C(=O)c2sc3nc(C)nc(N4CCC(C)CC4)c3c2C)CC1	>57	-17%
O=C(c1cccc(F)c1)N1CCC2(CCCN(C(c3ccccc3)c3ccccc3)C2)CC1	>57	-2%
COC(=O)COc1cc(C)cc2oc(=O)c3c(c12)CCCC3	>57	3%
COc1ccc(-c2nnc3sc(-c4ccc(Br)o4)nn23)cc1OC	>57	19%
Nc1c(C(=O)c2ccc(Br)s2)oc2ccccc12	.	-17%
Cc1cc(C)c(C#N)c(SCC(=O)N2CCCCC2)n1	>57	?
COc1ccc(CNc2ncncc2-c2ccccc2CN(C)C)c(OC)c1	>57	8%
O=C(c1cccc(F)c1)N1CCC2(CCCN(c3ncccn3)C2)CC1	>57	8%
Clc1ccccc1OCCn1ccnc1	>57	-7%
COCCCN1C(=O)C(=O)/C(=C(/O)c2ccc(OC)cc2)C1c1cccc(OC)c1 (configuration not stated)	>57	-2%
C=C(C)c1cccc(C(C)(C)NC(=O)N2CCOCC2)c1	>57	-6%
O=C(NCCN1CCCC1)c1ccc2c(c1)N(Cc1ccc(F)cc1)C(=O)c1ccccc1S2=O (configuration not stated)	>57	?
COc1ccc2nc(NC(=O)C3CCCN(S(=O)(=O)c4cccc5nonc45)C3)sc2c1 (configuration not stated)	>57	10%
O=C(c1ccc2c(c1)OCCO2)C1CCN(S(=O)(=O)c2ccc(F)cc2)CC1	>57	?
Cc1cc2c(s1)NC(=O)CN=C2c1cccs1	>57	4%
O=C(O)c1cc(-c2ccccc2Cl)n[nH]1	>57	-5%
CCc1ccccc1NC(=O)CSc1nnc([C@@H](N)Cc2c[nH]c3ccccc23)o1	>57	.
Cc1ccc(CNC(=O)C2CCCCC2C(=O)O)cc1 (configuration not stated)	>57	-5%
O=C(c1ccc(CS(=O)(=O)c2ccc(Br)cc2)o1)N1CCN(C2CCCCC2)CC1	>57	-3%
COc1ccc(C)cc1S(=O)(=O)Nc1cccnc1	>57	1%
COCCCNC(CC(=O)Nc1ccc(OC)cc1OC)C(=O)O (configuration not stated)	>57	4%
Cc1cccc(NC(=O)CN2C(=O)COc3ccc(Cl)cc32)c1C	>57	?
COc1ccc(N(CC(=O)NCc2ccco2)S(=O)(=O)c2ccc(OC)c(OC)c2)cc1	.	-7%
O=c1cc(N2CCN(c3ccccc3)CC2)[nH]c(=O)n1C1CCCCC1	>57	3%
COC(=O)c1ccc(C(=O)OC)c(NS(C)(=O)=O)c1	>57	9%
Cc1ccccc1NS(=O)(=O)c1ccc(C2CNC(=O)C2)cc1 (configuration not stated)	>57	9%

(continued)
SMILES	Prx2 Sm inh	LT uptake inh
CNc1csc(C)c(C)c1=O	>57	15%
CC1(C)CC(=O)C=C(Nc2ccc(S(N)(=O)=O)cc2)C1	>57	.
COc1ccc(C2(C(=O)Nc3ccc(C(=O)N4CCOCC4)cc3)CCOCC2)cc1	>57	.
O=C(O)C1CSC2(c3ccc4c(c3)OCCO4)CCC(=O)N12 (configuration not stated)	>57	-4%
Cc1cccc(N2CC(C)Cn3c2nc2c3c(=O)n(CC(=O)OCc3ccccc3)c(=O)n2C)c1 (configuration not stated)	>57	?
CCS(=O)(=O)c1ccc2oc(SCC(=O)NCCC3=CCCCC3)nc2c1	>57	-17%
N=c1nc(SCCC(=O)O)ss1	>57	1%
Cc1ccc2oc(-c3ccccc3)c(O)c(=O)c2c1	>57	?
CSCCC(NC(=O)C1CCC(C)CC1)C(=O)NCCN1CCOCC1 (configuration not stated)	>57	9%
CCOC(=O)N1CCC2(CC1)C(C(=O)C13CC4CC(CC(C4)C1)C3)C2(C#N)C#N (configuration not stated)	>57	1%
CC1=C(C(=O)Nc2ccccc2)C(c2ccccc2)N2C(=O)CSC2=N1 (configuration not stated)	.	-12%
COc1ccccc1CNc1ncncc1-c1cccc(NS(C)(=O)=O)c1	>57	-6%
CC(C)Cn1c(CN(C)Cc2ccccc2)nc2c1c(=O)n(C)c(=O)n2C	>57	2%
C[N+](C)(C)c1ncnc2c1ncn2[C@@H]1CCCCO1	>57	-3%[8 µM]
COc1ccccc1NC(=O)CC(=O)CSc1nnc(-c2ccc(C)cc2)n1C	>57	-2%
COc1cc(OC)c(OC)cc1CN1CCCC(C(=O)N2CCCCC2)C1 (configuration not stated)	>57	-5%
Oc1cccc(Cl)c1Cl	.	0%
CN(CC(=O)NCCc1ccccc1)S(=O)(=O)c1cccs1	>57	0%
C/C(Cl)=C\Cn1c(NCCCn2ccnc2)nc2c1c(=O)n(C)c(=O)n2C	>57	.
CCc1nnc(NC(=O)CSc2nnc(Cc3cccn3C)n2CCOC)s1	>57	8%
CC1CCCCC1NC(=O)C1CCN(S(=O)(=O)N2CCC3(CC2)OCCO3)CC1 (configuration not stated)	>57	-1%
CN(C)CCN1C(=O)C(O)=C(C(=O)c2cc3ccccc3o2)C1c1ccc(N(C)C)cc1 (configuration not stated)	>57	5%
CC(=O)C1=C(O)C(=O)N(C2CCCCC2)C1c1ccccc1 (configuration not stated)	>57	-7%
COc1ccccc1CNC(=O)C1CCN(S(C)(=O)=O)CC1	>57	-9%
COC(=O)CCCCC1SCC(NC(=O)OC)C1NC(=O)OC (configuration not stated)	>57	0%
CCc1ccc(-c2nc(CN3CCCC(C(=O)NCCc4ccc(OC)c(OC)c4)C3)c(C)o2)cc1 (configuration not stated)	>57	?
CCCCNC(=O)C1c2cc(OC)c(OC)cc2C(=O)N(C)C1c1ccc(OC)cc1 (configuration not stated)	>57	7%
Cc1cc(C)nc(Sc2nc(C)nc3c2oc2ccccc23)n1	>57	-23%
CN(C)c1nc(OCC(=O)NC(C)(C)C)nc(N(C)C)n1	>57	14%
COc1cccc(C(=O)N(Cc2ccco2)Cc2cc3cccc(C)c3[nH]c2=O)c1	>57	-12%

17 of the compounds above, with values under each structure:
Fields – Prx2 Sm inh	LT uptake inh
COc1ccccc1CNc1ncncc1-c1cccc(NS(C)(=O)=O)c1
→ >57	-6%
CC(C)Cn1c(CN(C)Cc2ccccc2)nc2c1c(=O)n(C)c(=O)n2C
→ >57	2%
C[N+](C)(C)c1ncnc2c1ncn2[C@@H]1CCCCO1
→ >57	-3%[8 µM]
COc1ccccc1NC(=O)CC(=O)CSc1nnc(-c2ccc(C)cc2)n1C
→ >57	-2%
COc1cc(OC)c(OC)cc1CN1CCCC(C(=O)N2CCCCC2)C1 (configuration not stated)
→ >57	-5%
Oc1cccc(Cl)c1Cl
→ .	0%
CN(CC(=O)NCCc1ccccc1)S(=O)(=O)c1cccs1
→ >57	0%
C/C(Cl)=C\Cn1c(NCCCn2ccnc2)nc2c1c(=O)n(C)c(=O)n2C
→ >57	.
CCc1nnc(NC(=O)CSc2nnc(Cc3cccn3C)n2CCOC)s1
→ >57	8%
CC1CCCCC1NC(=O)C1CCN(S(=O)(=O)N2CCC3(CC2)OCCO3)CC1 (configuration not stated)
→ >57	-1%
CN(C)CCN1C(=O)C(O)=C(C(=O)c2cc3ccccc3o2)C1c1ccc(N(C)C)cc1 (configuration not stated)
→ >57	5%
CC(=O)C1=C(O)C(=O)N(C2CCCCC2)C1c1ccccc1 (configuration not stated)
→ >57	-7%
COc1ccccc1CNC(=O)C1CCN(S(C)(=O)=O)CC1
→ >57	-9%
COC(=O)CCCCC1SCC(NC(=O)OC)C1NC(=O)OC (configuration not stated)
→ >57	0%
CCc1ccc(-c2nc(CN3CCCC(C(=O)NCCc4ccc(OC)c(OC)c4)C3)c(C)o2)cc1 (configuration not stated)
→ >57	?
CCCCNC(=O)C1c2cc(OC)c(OC)cc2C(=O)N(C)C1c1ccc(OC)cc1 (configuration not stated)
→ >57	7%
Cc1cc(C)nc(Sc2nc(C)nc3c2oc2ccccc23)n1
→ >57	-23%

(continued)
SMILES	Prx2 Sm inh	LT uptake inh
Cc1cccc(NC(=O)C2CCCN(C(=O)Nc3ccccc3)C2)c1C (configuration not stated)	>57	11%
COc1ccc(NC(=O)CSc2nnc(-c3ccccn3)n2N)cc1	>57	-4%
COC(=O)CCC(=O)Nc1ccc(C)cc1OC(=O)CCC(=O)OC	.	?
CC(=O)c1cccc(NC(=O)c2ccc(NS(C)(=O)=O)cc2)c1	>57	0%
CCO[C@H](c1cc(OC)cc([N+](=O)[O-])c1OC)[C@H](C)/C=C\CC(=O)OC	.	3%[8 µM]
COC(=O)CCSc1nccn1Cc1ccccc1	>57	10%
COc1ccc(-c2noc(-c3ccccc3Cl)n2)cc1OC	>57	-18%
C[N+](C)(C)CCCSc1nc2ccccc2[nH]1	>57	3%[8 µM]
CC(=O)NCC(=O)N(c1ccccc1)C1(C(=O)NC2CCCCC2)CCCCC1	>57	17%
CCOC(=O)CNC(=O)c1cnn2cccnc12	>57	5%
Cc1cc(OCC(=O)NCc2nc(-c3ccccc3)no2)c(C)cc1Br	>57	-19%
CN(C(=O)c1ccc2c(=O)n3c(nc2c1)CCCCC3)c1ccccc1	>57	13%
COc1ccccc1-n1c(SCC(=O)N2CCCCC2)nnc1-c1ccccc1O	>57	-7%
O=C(O)CCCC(=O)NCCCCc1ccccc1	.	5%
CN(C)Cc1ccccc1-c1cc(N(C)C)ncn1	.	0%
CCC(C)(C)NC(=O)C(c1cccn1C)N(C(=O)Cn1nnc2ccccc21)c1ccc(F)cc1 (configuration not stated)	>57	-2%
COC(=O)CSc1nc(C(C)C)nc2ccccc12	>57	-8%
O=C(Cn1c(-c2ccc(Cl)cc2)noc1=O)N1CCN(c2ccccc2F)CC1	>57	-18%
CS(=O)(=O)NCCSCc1c(F)cccc1Cl	.	4%
Cc1ccc2oc(=O)n(CC(=O)O)c2c1	>57	-4%
O=C(CCCCCn1c(=O)[nH]c2ccsc2c1=O)N1CCN(C2CCCCC2)CC1	>57	-7%
Cn1c(CN2CCCC2)nc2cc(NC(=O)COc3ccc(Cl)cc3)ccc21	>57	-5%
CCOC(=O)c1c(-c2ccsc2)csc1N	>57	-16%
CNc1ccc2oc(C[C@@H]3O[C@@]4(CC[C@H]3C)O[C@@H]([C@@H](C)C(=O)c3ccc[nH]3)[C@@H](C)C[C@H]4C)nc2c1C(=O)O	>57	?
CC(C)OCCCN1C(=O)c2ccccc2C1C(=O)NC1CCCCC1 (configuration not stated)	>57	-3%
O=C(O)c1cccc(N2C(=O)CSC2c2c(F)cccc2Cl)c1 (configuration not stated)	>57	3%
CCCC(=O)OCC(=O)Nc1cc(C(C)(C)C)nn1-c1ccccc1	>57	7%
Cc1ccc(-n2nnc3c(=O)n(CC(=O)NCC4CCCO4)cnc32)cc1 (configuration not stated)	>57	2%
O=C(c1ccc(S(=O)(=O)N2CCCC2)cc1)N1CCCc2ccccc21	.	-6%
OCCNc1ncnc2nc[nH]c12	>57	-5%[8 µM]
CCSc1nc2nc(C)cc(C)n2n1	>57	7%
O=C(Cn1nnc(-c2cccc(C(F)(F)F)c2)n1)NC1CCCC1	>57	-11%
O=C(CC(SCCO)c1ccc(F)cc1)c1ccco1 (configuration not stated)	>57	-6%
O=C(O)c1[nH]c2c([N+](=O)[O-])cc([N+](=O)[O-])cc2c1C(=O)O	>57	-3%[8 µM]
O=C(Nc1ccccc1)N1CC[C@@]2(CCCN(C(=O)Oc3ccccc3)C2)C1	>57	-3%
Cc1nnc(-c2ccccc2)c[n+]1[O-]	>57	.
Cc1cccc(NC(=O)CNc2cc(C)ccc2C)c1	>57	-2%
